From PubChem
A647 fluor: qHTS Assay for Spectroscopic Profiling in A647 Spectral Region. Compound fluorescence, A647 channel (570/671 nm), Tris buffer. max dye-equivalent concentration, M. AID 592, 2007. 59,000 tested, under 10 active; active means above 1 µM dye equivalent; inconclusive means 0.1 to 1 µM; inactive means 0.1 µM or less;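 also: values scaled relative to a standard on each plate; highest value over a series up to 38 µM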
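Each compound's intrinsic fluorescence at 570 nm excitation and 671 nm emission is measured across its concentration series in 100 mM Tris, pH 8.0, after 15 min at room temperature, and reported relative to an A647 curve.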
AID923: qHTS Assay for Allosteric/Competitive Inhibitors of Caspase-1: Spectroscopic Profiling in AFC Spectral Region; compound fluorescence, AFC spectral region (405/520 nm); almost no hit is shown here; Potency, µM (top dose mostly 57.5 µM), for the others: top-dose fluorescence increase, actives largely listed as activators; 75,000 compounds, 1.1% hits; AID 923, 2007; active = well fitted activation curve with a large enough effect; inconclusive = small, poorly fitted or top-dose-only effect;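 also: potency is read from the fitted curve at half-maximal effect; 0% is about no effect; scaled to a free AFC standard on each plate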
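Compound autofluorescence profiled at 405 nm ex/520 nm em during kinetic caspase 1 run (50 nM enzyme, 5 uM Ac-WEHD-AFC, HEPES pH 7.5, 10 mM DTT). Titration up to 57 uM; baseline from regression intercept, normalized to AFC standard curve.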
TSHR agonist: qHTS Assay for Agonists of the Thyroid Stimulating Hormone Receptor; Thyrotropin receptor (Homo sapiens), P16473; HEK293-CNG-TSHR cells (CNG channel as cAMP sensor), membrane potential dye, cAMP; Potency, µM (doses to about 57.1 µM), inactives show top-dose activation, hits mostly activators; 73,000 compounds, 0.48% hits; active = well fitted activation curve of enough size with the parental cells flat; inconclusive = any curve in the parental cells; inactive = parental cells flat and receptor cells flat or falling; also: potency is read from the fitted curve at half-maximal effect; % of control where 0% means no effect; weak receptor curves with flat parental cells got no call and are not listed
Target sequence (P16473 whole entry, looked up): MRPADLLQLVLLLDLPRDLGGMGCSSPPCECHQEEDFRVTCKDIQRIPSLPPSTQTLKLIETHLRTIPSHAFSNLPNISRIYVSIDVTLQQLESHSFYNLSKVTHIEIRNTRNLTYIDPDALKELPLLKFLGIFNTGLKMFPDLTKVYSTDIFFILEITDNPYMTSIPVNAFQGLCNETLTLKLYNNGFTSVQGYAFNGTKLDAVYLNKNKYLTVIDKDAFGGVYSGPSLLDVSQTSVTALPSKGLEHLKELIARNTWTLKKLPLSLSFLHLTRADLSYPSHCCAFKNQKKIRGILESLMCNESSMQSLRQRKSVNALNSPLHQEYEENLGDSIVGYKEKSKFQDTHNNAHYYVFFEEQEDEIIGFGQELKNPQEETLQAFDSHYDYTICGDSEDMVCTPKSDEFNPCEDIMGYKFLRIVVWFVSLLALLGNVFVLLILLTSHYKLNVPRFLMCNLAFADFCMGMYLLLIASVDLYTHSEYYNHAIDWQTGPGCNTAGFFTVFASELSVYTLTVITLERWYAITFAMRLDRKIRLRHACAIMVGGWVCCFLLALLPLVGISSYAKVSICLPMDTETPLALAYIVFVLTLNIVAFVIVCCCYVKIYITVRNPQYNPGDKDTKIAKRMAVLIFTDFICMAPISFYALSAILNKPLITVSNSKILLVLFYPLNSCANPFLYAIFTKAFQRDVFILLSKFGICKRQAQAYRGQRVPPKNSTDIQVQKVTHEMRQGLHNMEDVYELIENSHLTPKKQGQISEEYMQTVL
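HEK 293 cells stably expressing TSHR and a modified CNG channel, with CNG-only parental cells as counterscreen, were preloaded 60 min at room temperature with membrane potential dye containing 100 uM RO 20-1724. Compound exposure was 30 min, and depolarization was read as fluorescence at 590 nm.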
Resorufin fluor: qHTS Assay for Spectroscopic Profiling in Resorufin Spectral Region; Compound fluorescence, resorufin region 547/598 nm, buffer; active compounds read high; max dye-equivalent concentration, M; 59,000 compounds, 0.04% hits; AID 588, 2007; active = above 10 nM dye equivalent; inconclusive = 1 to 10 nM; inactive = 1 nM or less; a few of its hits are not listed in these tables; also: highest value over a series up to 38 µM
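Compounds in 100 mM Tris, pH 8.0, incubated 15 min at room temperature, then fluorescence read at 547 nm excitation/598 nm emission. Signal converted to dye-equivalent concentration via an on-plate six-point resorufin standard curve, per compound concentration.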
A488 autofl: qHTS Assay for Spectroscopic Profiling in A488 Spectral Region. compound autofluorescence, A488 spectral region, dye equivalency; active compounds read high. AID 591, 2007. 59,000 compounds, 0.1% hits. max dye equivalency, M; active = above 10 nM dye equivalent; inconclusive = 1 to 10 nM; inactive = 1 nM or less; about half of its hits are not listed in these tables;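 also: highest value over a series up to 38 µM; compound alone in buffer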
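Spectroscopic profiling in the A488 region: compounds in pH 8.0 Tris (100 mM), 15 min RT, CCD imaging with 480 nm excitation and 540 nm emission; responses normalized against A488 dye standards.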
* marks the source's active call; other numbers are inactive results; i = inactive; ? = inconclusive; / = no result given; [ ] = dose if it differs, or a comment. Not all compounds are listed (hit frequency here may not be typical).

Preview (2 entries):
molecule,TSHR agonist,A647 fluor,AID923,A488 autofl,Resorufin fluor
O=C(COc1ccc(S(=O)(=O)N2CCOCC2)cc1)NC1CCCC1,-1%,3.7e-08,-1.2%,i,i
O=C(Nc1nc2ccccc2n1Cc1ccccc1)c1ccco1,?,8.4e-08,0.7%,i,i

The list itself, repeating the preview:
molecule,TSHR agonist,A647 fluor,AID923,A488 autofl,Resorufin fluor
O=C(COc1ccc(S(=O)(=O)N2CCOCC2)cc1)NC1CCCC1,-1%,3.7e-08,-1.2%,i,i
O=C(Nc1nc2ccccc2n1Cc1ccccc1)c1ccco1,?,8.4e-08,0.7%,i,i
COc1ccc(N(CC(=O)NC2CCCCCCC2)S(=O)(=O)c2c(C)nn(C)c2C)cc1,17%,/,3.4%,/,/
CCOc1ccccc1NC(=O)Cn1nnc(-c2ccc(OCC)c(OCC)c2)n1,22%,3.9e-08,1.6%,i,i
Cc1nc2cc(NC(=O)N(C)c3ccc4ccccc4c3)ccc2o1,15%,1.3e-08,-4.3%,i,i
CCCCCCn1c(CN2CCCCC2CC)nc2c1c(=O)n(C)c(=O)n2C (stereo not drawn),7%,/,2.5%,/,/
COc1ccc(N2CCN(C(=O)CSc3nnc(COc4cccc5cccnc45)o3)CC2)cc1,4%,2.9e-09,-0.7%,i,i
COc1ccc(CC(=O)Nc2ccc3c(c2)OCO3)cc1S(=O)(=O)N1CCOCC1,11%[11.4 µM],1.4e-08,-1.2%,i,i
Cc1cc(NC(=O)CSc2nc(-c3cccs3)cc(C(F)(F)F)n2)no1,9%,4.8e-09,-0.8%,i,i
CCOC(=O)c1c(C)c(C(=O)N2CCc3ccccc3C2)c(C)n1CC,?,6.8e-09,3.7%,i,i
N#CCCN1CCN(Cc2cc(-c3ccccc3)ccc2O)CC1,-8%,1e-09,-0.6%,i,i
CC1CC(C)CN(c2oc(-c3ccccc3Cl)nc2C#N)C1 (stereo not drawn),?,1.5e-08,0.6%,i,i
O=C(CS(=O)(=O)c1ccccc1)N1CCCCCC1,-1%,1e-09,-0.2%,i,i
CC(C)(C)OC(=O)NC(CCCCNC=O)C(=O)O (stereo not drawn),-11%,1.4e-08,0.2%,i,i
CC(=O)NCc1ccc(C(=O)CSc2nnc(-c3ccncc3)n2Cc2ccccc2)o1,-1%,2e-08,0.6%,i,i
COc1ccc(C(=O)Cn2nnc(-c3ccccc3NC(=O)c3ccco3)n2)cc1,5%,3.9e-08,1.4%,i,i
COc1ccc(Cc2nn3c(-c4cc(OC)c(OC)c(OC)c4)nnc3s2)cc1,/,4.9e-09,-1.5%,i,i
COC(=O)c1[nH]c2cc(OC)c(OC)cc2c1NC(=O)c1cccc(OC)c1,?,1e-09,-1.9%,i,i
O=C(Cn1nnc(-c2ccc(Cl)cc2)n1)NCC1CCCCC1,?,3.1e-08,-0.7%,i,i
CCOC(=O)C(CC)n1nc(C)n2c(cc3sccc32)c1=O (stereo not drawn),14%,/,2.4%,/,/

Exported field by field: part of the list above
> CC(=O)NCc1ccc(C(=O)CSc2nnc(-c3ccncc3)n2Cc2ccccc2)o1
  TSHR agonist = -1%	A647 fluor = 2e-08	AID923 = 0.6%	A488 autofl = i	Resorufin fluor = i
> COc1ccc(C(=O)Cn2nnc(-c3ccccc3NC(=O)c3ccco3)n2)cc1
  TSHR agonist = 5%	A647 fluor = 3.9e-08	AID923 = 1.4%	A488 autofl = i	Resorufin fluor = i
> COc1ccc(Cc2nn3c(-c4cc(OC)c(OC)c(OC)c4)nnc3s2)cc1
  TSHR agonist = /	A647 fluor = 4.9e-09	AID923 = -1.5%	A488 autofl = i	Resorufin fluor = i

Following part
molecule,TSHR agonist,A647 fluor,AID923,A488 autofl,Resorufin fluor
CCOC(=O)C1CCCN(Cc2c(F)cccc2Cl)C1 (stereo not drawn),/,1e-09,-0.7%,i,i
COc1cccc(CN(Cc2ccco2)C(c2ccc(F)cc2)c2nnnn2C(C)(C)C)c1 (stereo not drawn),?,1.3e-08,1.9%,i,i
CCOC(=O)C(NCCCO)c1ccccc1 (stereo not drawn),-3%,6.2e-09,-0.2%,i,i
Cc1cc(C)c(/C=C2/C(=O)Nc3ccccc32)[nH]1,?,6.6e-08,1.2%,i,i
COc1ccc(-c2nc(N)n(C(C)=O)n2)cc1,4%,1e-09,0.5%,i,i
Cc1ccc(N2C(=O)[C@@H]3Cc4ccccc4CN3C2=O)cc1,-4%,1.7e-08,-0.9%,i,i
CCCOc1cccc(C(=O)Nc2nnn(CCC)n2)c1,0%,4.1e-08,1.7%,i,i
COc1cc(C2=Nc3c(c(C)nn3-c3ccccc3)P(=O)(N3CCOCC3)O2)cc(OC)c1OC (stereo not drawn),3%,3e-08,-1.5%,i,i
CC(=O)NC(CCS(C)(=O)=O)C(=O)Nc1cccc(C)c1 (stereo not drawn),?,/,4.2%,/,/
c1ccc(CSc2nnc3c4ccccc4c4ccccc4c3n2)cc1,2%[11.4 µM],4.5e-09,-3.5%[11.5 µM],i,i
Cc1ccc(N(CC(N)=O)C2SC(=O)NC2=O)cc1 (stereo not drawn),15%,9.9e-09,1.5%,i,i
COc1nnc(-c2ccc(C(=O)N3C[C@@H]4C[C@H](C3)c3cccc(=O)n3C4)cc2)c2ccccc12,6%,4.5e-08,1.1%,i,i
CCCCSc1nnc([C@H](CC(C)C)NC(=O)OC(C)(C)C)o1,?,4e-09,-2.5%,i,i
CCOC(=O)C1CCCN(c2ccc(NC(=O)c3snc4c(=O)[nH]cnc34)cc2)C1 (stereo not drawn),-11%,1e-09,2.2%,i,i
CCCn1c(SCC(=O)Nc2ccccc2CC)nnc1C(C)C,0%,1.8e-08,-0.1%,i,i
CC(C)Sc1oc(-c2ccco2)nc1S(=O)(=O)c1ccc(F)cc1,-2%[11.4 µM],2.7e-08,1.1%,i,i
O=C(O)Cc1ccccc1C(=O)O,-2%,3.3e-08,1.5%,i,i
COc1ccc(Cl)cc1S(=O)(=O)N1CCN(C(=O)COc2ccccc2)CC1,7%,1e-09,-1.2%,i,i
CCC(Sc1ncccc1C(=O)O)C(=O)N1CCOCC1 (stereo not drawn),-4%,1e-09,-1.6%,i,i
CCOC(=O)c1c2n(c3c(NCc4ccccc4)ncnc13)CCCC2,7%,/,-0.9%,/,/

Arranged by value in A647 fluor (falling): three from the list above
SMILES	A647 fluor
CCCn1c(SCC(=O)Nc2ccccc2CC)nnc1C(C)C	1.8e-08
Cc1ccc(N(CC(N)=O)C2SC(=O)NC2=O)cc1 (stereo not drawn)	9.9e-09
CCCCSc1nnc([C@H](CC(C)C)NC(=O)OC(C)(C)C)o1	4e-09

Further compounds:
molecule,TSHR agonist,A647 fluor,AID923,A488 autofl,Resorufin fluor
CN(C)c1ncnc2c1ncn2CCn1cnc2c(N(C)C)ncnc21,0%[11.4 µM],4.6e-08,-0.4%[11.5 µM],i,i
Cc1ccc(CN2C(=O)CCC2C(=O)NCCCN2CCCC(C)C2)cc1 (stereo not drawn),8%,3.3e-09,-0.2%,i,i
CCOC(=O)C1=C(C)Nc2ncnn2C1c1ccc(N(C)C)cc1 (stereo not drawn),-2%,9.5e-09,-0.5%,i,i
CN1CCN(C(=O)c2c(O)c3cccc4c3n(c2=O)CCC4)CC1,-2%,1e-09,0.5%,i,i
O=S(=O)(NCc1ccc2c(c1)OCO2)c1cccc2nsnc12,6%,3.3e-08,1.7%,i,i
CCOC(=O)c1cccc(Nc2nc(C)cc(C)n2)c1,7%,1e-09,0.0%,i,i
O=C(CCn1c(=S)[nH]c2ccccc2c1=O)N1CCN(c2ccccn2)CC1,-7%,4e-09,4.4%,i,i
COC(=O)c1ccc(NC(=O)C2CCCN(S(=O)(=O)c3cnc[nH]3)C2)cc1 (stereo not drawn),0%,/,-0.4%,/,/
N#CCCN1CCN(S(=O)(=O)c2ccc(S(=O)(=O)NC3CC3)cc2)CC1,-16%,/,1.9%,/,/
CC(C)(C)c1ccc(S(=O)(=O)NCC(=O)N2CCN(C(=O)c3ccco3)CC2)cc1,1%,7.6e-09,3.0%,i,i
OC(CN1C2=NCCCN2c2ccccc21)c1ccc2c(c1)OCO2 (stereo not drawn),?,1.1e-09,2.2%,i,i
CCOC(=O)c1[nH]c(C)c(C(=O)OCC(=O)NC(=O)NC(C)(C)C)c1C,-6%,1.8e-08,-2.8%,i,i
O=C(COc1ccccc1)NCC(=O)NC1=NCCS1,-1%[11.4 µM],2.4e-08,-1.0%,i,i
COc1ccc(CCNC(=O)c2c(O)c3cccc4c3n(c2=O)CC4)cc1,16%,1.5e-08,-0.5%,i,i
COC(=O)C1=C(C)NC(=O)CC1c1cc(Br)ccc1F (stereo not drawn),20%,1e-09,-0.8%,i,i
CC(C)Sc1oc(-c2ccco2)nc1S(=O)(=O)c1ccccc1,?,2.3e-08,-0.4%,i,i
COc1ccc(S(=O)(=O)N(Cc2nc3ccccc3c(=O)[nH]2)C2CCCC2)cc1,-2%,5.1e-09,-0.2%,i,i
COc1ccc(Br)c2c1C[C@H](C(=O)O)CC2,9%[11.4 µM],5e-08,-5.9%[11.5 µM],i,i
O=C(CSc1nnc(CNc2ccccc2)o1)N1CCN(C(=O)c2ccco2)CC1,-5%,1e-09,0.1%,i,i
O=C(Nc1cnc2sc3c(n2c1=O)CCCC3)c1ccc(F)cc1,6%,1e-09,-6.0%,i,i
Cc1cc(C)n(-c2nnc(C)n2/N=C/c2cc(Br)ccc2OCc2ccccc2)n1,?,/,-0.9%,/,/
O=C(NCc1ccc2c(c1)OCO2)C1CCCN(S(=O)(=O)c2cccc3nonc23)C1 (stereo not drawn),?,3.8e-08,4.0%,i,i
CCOC(=O)c1[nH]c2ccc(F)cc2c1N=C(C)N(CC)CC,/,5.1e-08,/,i,i
CCOc1ccccc1N1CCN(CC(=O)Nc2nnc(CC)s2)CC1,1%,1e-09,-0.3%,i,i
CC(C)CCn1c(SCCN2CCOCC2)nc2c1c(=O)[nH]c(=O)n2C,-7%,6e-09,-1.7%,i,i
c1ccc(SC(Sc2ccccc2)c2ccc3c(c2)OCO3)cc1,14%[11.4 µM],3.5e-08,-1.7%[11.5 µM],i,i
Cc1ccc(NC(=O)c2cccs2)cc1NC(=O)c1ccco1,-1%,2.2e-08,0.4%,i,i
CCCC1=C(C(=O)OCC)C(c2ccccc2OC)NC(=O)N1 (stereo not drawn),3%,/,-0.5%,/,/
COc1cccc(OC)c1C(=O)Nc1c(C)n(C)n(-c2ccccc2)c1=O,2%[11.4 µM],/,2.2%,/,/
O=C(CN1CCN(c2ccccc2F)CC1)c1ccc2c(c1)OCO2,15%,/,5.3%,/,/
Cc1ccc(S(=O)(=O)c2nc(NC3CCS(=O)(=O)C3)sc2Cl)cc1 (stereo not drawn),-16%,3.8e-08,-0.6%,i,i
CCCCN1C(=O)C(NC(C)=O)c2ccccc21 (stereo not drawn),7%,6.3e-08,-1.1%,i,i
